Compound activity: PubChem, several laboratories
PKD1 kinase inh: inhibitors of human PKD1 kinase, biochemical, fluorescence polarization. PKD1 kinase fluorescence polarization assay. inhibition, %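 (about 10 µM by stock and volumes)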. 200,000 compounds, 0.056% hits. AID 797, 2007;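 active = inhibition of 50% or more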;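 note: controls were vehicle for no effect and a reference inhibitor for full effect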
RGS16-Gao HTS: modulators of RGS16 binding to Galphao, primary screen, biochemical, human proteins, multiplexed bead flow cytometry; binding response (% of control), % at 10 µM; Regulator of G-protein signaling 16 (Homo sapiens) + Guanine nucleotide-binding protein …; AID 1441, 2008; 220,000 compounds, 0.38% hits; bead-based flow cytometry RGS16-Galphao binding, fluorescence; actives lie on both sides;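 active = below 25% or above 175%, edge rows of some plates excepted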;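 note: Galphao activated by GDP with aluminum fluoride before binding; 100% = wells without compound and 0% = beads without RGS; some results beyond the cut were filed as inactive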
Target sequence (O15492 whole entry, looked up): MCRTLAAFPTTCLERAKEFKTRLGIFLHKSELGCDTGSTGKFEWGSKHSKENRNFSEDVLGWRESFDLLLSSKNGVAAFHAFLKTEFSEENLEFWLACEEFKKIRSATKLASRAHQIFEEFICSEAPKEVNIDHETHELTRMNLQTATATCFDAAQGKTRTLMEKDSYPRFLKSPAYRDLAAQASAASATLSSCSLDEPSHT
Target sequence (P09471 whole entry, looked up): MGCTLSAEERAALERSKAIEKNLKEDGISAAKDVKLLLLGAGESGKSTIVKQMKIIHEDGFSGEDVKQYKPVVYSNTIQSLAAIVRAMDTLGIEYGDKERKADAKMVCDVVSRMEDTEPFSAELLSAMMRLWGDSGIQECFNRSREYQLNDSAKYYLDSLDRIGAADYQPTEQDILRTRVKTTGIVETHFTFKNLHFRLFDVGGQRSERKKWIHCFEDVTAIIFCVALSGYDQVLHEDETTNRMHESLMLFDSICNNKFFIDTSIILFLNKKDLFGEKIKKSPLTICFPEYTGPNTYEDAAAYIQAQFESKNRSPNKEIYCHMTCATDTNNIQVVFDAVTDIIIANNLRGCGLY
INS promoter inh: inhibitors of insulin promoter-driven GFP, primary screen, imaging, TRM-6 cells (human fetal islet line), eGFP reporter, cell count | 130,000 compounds, 0.9% hits | inhibition, % at 2 µM | reporter expression induced with tamoxifen | AID 1273, 2008;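 active = inhibition above the mean plus 3 SD, with well images judged a real hit on visual review, cut at about 60% in these data, passing the limit was not always enough; inconclusive = inhibition over the cutoff but images rejected on review; inactive = inhibition not above the cutoff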
HSV augment: enhancers of HSV replication in host cells, fold increase, host cell viability. 220,000 compounds, 0.005% hits. HSV replication augmentation in cells. maximum fold increase;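 active = peak rise of 1.5-fold or more in the series; inconclusive = self-fluorescent or not available for retest; tested in PC3 cells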;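 note: first round at 10 µM; read as green reporter fluorescence; hits show the peak of a series up to 25 µM; 1 = signal of infected wells without compound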
GALR2 agonist: GALR2 receptor agonists, primary screen, cell-based; GALR2-expressing cells, agonist activation read-out; activation, %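 (tested at 5 µM)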; 140,000 compounds, 0.48% hits;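 active = above mean plus 3 SD of all compounds, about 5% in these data, not always enough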;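 note: 0% = vehicle buffer wells and 100% = reference agonist at full effect; tested in CHO reporter cells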
INS promoter inh cell count: recorded beside INS promoter inh, whose call it bears; normalized cell count, %; measured here: cell count, toxicity; reference of the scale not given here;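 cells exposed to compound for 48 h; stained nuclei by imaging scaled within each plate; lower means fewer cells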
HSV augment primary fold: recorded beside HSV augment, whose call it bears; fold increase; compound at 10 µM; measured here: primary screen fold increase 10 uM; tested in PC3 cells;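 GFP signal in the first replicate; 1 = infected wells without compound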
An asterisk follows results filed as active; i = inactive; ? = inconclusive; . = not tested or not shown.

Order of values – PKD1 kinase inh	RGS16-Gao HTS	INS promoter inh	INS promoter inh cell count	HSV augment	HSV augment primary fold	GALR2 agonist
[1] COC(=O)c1ccc(C2CC(=O)Nc3cc(OC)c(OC)c(OC)c32)cc1 (stereo unspecified)
→ -9	100	56	191	i	0.95	-0.8
[2] CCc1nnc(NC(=O)C=C(C)C)s1
→ 0	105	-119	125	i	1	-4.5
[3] CCOC(=O)N1CCN(C(=O)CSc2cc(C)nc3c(-c4ccccc4OC)c(C)nn23)CC1
→ 4	94	30	115	i	1	-1.2
[4] CN(C)CC(C)(C)CNC(=O)c1cc(Br)cc(Br)c1O
→ -5	200	13	97	i	0.96	.
[5] O=CC1=C(N2CCOCC2)/C(=C/c2ccc(Cl)cc2)CC1
→ -5	91	.	.	i	0.91	.
[6] O=C(NCc1ccc(F)cc1)c1cccc(S(=O)(=O)N2CCCC2)c1
→ 1	102	-64	96	i	0.87	0.3
[7] CCC(=O)NC(=S)Nc1ccc(NC(=O)CC)cc1
→ -5	60	0	135	i	0.95	0.6
[8] Cc1ccc(CN2CCN(/N=C/c3cc(Br)cc(Br)c3O)CC2)c(C)c1
→ 0	164	.	.	i	1	-0.1
[9] CCCS(=O)(=O)N1CCN(CCN2C(=O)c3cccc4cccc(c34)C2=O)CC1
→ -3	101	.	.	i	0.88	.
[10] O=C(CSc1ncn[nH]1)N1c2ccccc2Sc2ccccc21
→ .	102	.	.	i	0.94	.
[11] O=C(Nc1ccc(O)c(-c2nc3ccccc3s2)c1)c1cc(=O)c2ccccc2o1
→ -1	96	-24	164	i	0.95	-0.7
[12] CC(=O)Nc1ccc(NS(C)(=O)=O)cc1
→ 2	79	-32	126	i	1.1	-5.7
[13] O=C(O)c1ccccc1C(=O)NCCc1c(C(=O)O)[nH]c2ccc(Cl)cc12
→ .	104	.	.	i	0.96	.
[14] C#CCOCCOCCOCCNc1nc(N2CCN(C(=O)Cn3cc(CCCCN)nn3)CC2)nc(N2CCN(C(=O)[C@H](C(C)C)n3cc(CCO)nn3)CC2)n1
→ 0	92	20	118	i	0.7	-1.1
[15] COc1ccc(C(=O)NC(=S)NC(C)(C)C)cc1Br
→ -4	101	27	79	i	1	0.1
[16] Cc1cc(Br)ccc1NC(=O)C1CCCO1 (stereo unspecified)
→ -5	102	-150	112	i	0.81	-1.7
[17] Cc1ccccc1/C=N/Nc1ccc(Cl)nn1
→ -3	96	.	.	i	1	.
[18] COC(=O)CN(c1ccc(Cl)cc1C)S(C)(=O)=O
→ -2	107	-7	89	i	0.94	.
[19] CC1=NN(/C(=N\c2nnc(C)s2)Nc2ccccc2)[C@H](c2ccc(C)cc2)S1
→ -7	108	-38	110	i	1	-3.2
[20] CN=CC1=C(O)C(C(=O)OC)C(C)(C)CC1=O (stereo unspecified)
→ -2	105	-4	84	i	1	.
[21] CC1CCCC/C1=N\Nc1ccc(S(N)(=O)=O)cc1[N+](=O)[O-] (stereo unspecified)
→ -4	103	-15	115	i	0.74	-1.7
[22] CCN(C(=O)c1c(-c2ccccc2)noc1C)c1ccccc1
→ -2	80	24	118	i	0.9	-1.4
[23] CC(NC(=O)c1ccc(Cl)c(Cl)c1)c1ccc(-c2ccccc2)cc1 (stereo unspecified)
→ .	102	.	.	i	0.92	.
[24] CCN1C(=O)S/C(=C/c2ccc(Oc3ccc([N+](=O)[O-])cn3)c(OC)c2)C1=O
→ 0	103	.	.	i	0.94	.
[25] CCCOC(=O)c1cc(NC(=O)/C=C/c2ccccc2)ccc1O
→ 4	102	.	.	i	0.87	.
[26] O=C(c1cc(-c2ccccc2O)on1)N1CCc2ccccc2C1
→ -10	104	.	.	i	0.93	-0.9
[27] COc1ccc(S(=O)(=O)N(CCCN2CCOCC2)Cc2cccc3ccccc23)cc1
→ -1	103	17	163	i	0.86	-1.7
[28] O=S(=O)(N1CCCCC1)N1CCCN(S(=O)(=O)N2CCCCC2)CC1
→ -7	105	5	121	i	1	1.1
[29] CC1CN(S(=O)(=O)c2cccc(C(=O)Nc3ccc(S(=O)(=O)Nc4ncccn4)cc3)c2)CC(C)O1 (stereo unspecified)
→ -5	104	25	117	i	0.89	.
[30] COc1cccc(C(=O)Cn2c(=O)n(CC3CCCO3)c(=O)c3ccccc32)c1 (stereo unspecified)
→ 2	105	-24	161	i	0.96	-1.2
[31] COc1ccc(-c2cc(C(F)(F)F)n3ncc(C(=O)Nc4c(C)n(C)n(-c5ccccc5)c4=O)c3n2)cc1
→ -5	109	41	119	i	1	.
[32] Cc1cc(NC(=O)CCC(=O)N(CC(=O)NC2CCCC2)c2cccc(C)c2C)no1
→ 1	.	-38	136	i	1	-2.5
[33] COc1ccc(C(=O)/C=C/Nc2ccc(S(=O)(=O)Nc3nc(C)cc(C)n3)cc2)cc1OC
→ 6	102	.	.	i	1.1	1.9
[34] O=C(Nc1ccc(F)cc1)c1cccc2c1C(=O)N(Cc1ccccn1)C2
→ -13	104	-230	40	i	0.91	-0.8
[35] CC(NC(=O)c1ccc(Cl)cc1)C(=O)N1CCCCC1 (stereo unspecified)
→ 0	100	.	.	.	.	-2.8
[36] Cn1nnc2cc(C(=O)Nc3ccccc3)ccc21
→ -11	57	-7	78	i	1	.
[37] CCOC(=O)c1c(C)n(-c2ccc(C)cc2)c2c(C(C(C)=O)C(=O)O)c(Br)c(O)c(O)c12 (stereo unspecified)
→ -4	99	6	61	i	0.84	-0.1
[38] Cc1ccc2[nH]c(O)c(N=NC(=O)CCc3ccccc3)c2c1Br
→ -9	16	43	71	i	0.83	-1.5
[39] Cc1cc(C(=O)Nc2c(C)nn(Cc3ccccc3Cl)c2C)no1
→ 8	10	.	.	i	1.1	-1.1
[40] CCCN1C2CCCC1CC(NC(=O)c1ccc(F)cc1)C2 (stereo unspecified)
→ 6	108	-43	66	i	0.9	-2.2
[41] COc1ccc(Cl)cc1C(=O)Nc1nnn(C)n1
→ 0	133	.	.	i	0.84	-2.8
[42] CC(=O)N(CCCCl)C(C#N)c1ccccc1 (stereo unspecified)
→ -11	69	31	166	i	0.99	-1.8
[43] CCCOc1ccc(CC(=O)NNC(=S)Nc2ccccc2)cc1Br
→ -2	96	-12	108	?	.	-0.9
[44] O=C(Cn1cnc([N+](=O)[O-])n1)N/N=C/c1ccc2ccccc2c1
→ -12	114	.	.	i	1	0.8
[45] COc1cc(S(=O)(=O)N(Cc2ccccn2)Cc2ccccc2Cl)ccc1-n1cnnn1
→ 0	107	22	106	i	0.9	0.3
[46] CC(C)(C)NC(=O)c1ccccc1-c1nc(-c2ccccc2Cl)no1
→ 11	106	-27	104	i	0.87	-2.6
[47] COC(=O)Cn1c(=O)c2c(nc(Br)n2Cc2ccccc2Cl)n(C)c1=O
→ -1	94	-37	94	i	0.97	0.0
[48] COc1ccc(C2c3ccsc3CCN2C(=O)NC(C)(C)C)cc1 (stereo unspecified)
→ .	103	.	.	i	1.1	.
[49] CC(C)c1ccc(NC(=O)C(=O)C2C(=O)Nc3ccccc32)cc1 (stereo unspecified)
→ 3	129	.	.	i	0.98	.
[50] O=c1cc(-c2ccccc2Cl)oc2c(NS(=O)(=O)c3cccs3)ccc(O)c12
→ .	90	.	.	i	0.96	.

(next part)
Order of values – PKD1 kinase inh	RGS16-Gao HTS	INS promoter inh	INS promoter inh cell count	HSV augment	HSV augment primary fold	GALR2 agonist
[51] O=C(NCCCN1CCN(c2cccc(Cl)c2)CC1)c1nc(-c2ccncc2)no1
→ -9	101	7	96	i	0.99	-0.6
[52] CCOc1cccc(N2C(=O)CC(N3CCC(C(N)=O)(N4CCCCC4)CC3)C2=O)c1 (stereo unspecified)
→ -3	99	-174	117	i	1	-1.4
[53] CC(=O)Nc1ccccc1-c1nc2ccc(C(=O)N3CCN(c4cc(C)ccc4C)CC3)cc2[nH]c1=O
→ -11	110	.	.	i	0.85	-2.1
[54] O=C1c2cccc3c(N4CCOCC4)c([N+](=O)[O-])cc(c23)C(=O)N1c1cccc2ccccc12
→ 9	45	29	122	i	1.1	-0.4
[55] CC12CN3CC(C)(CN(C1)C3c1ccc3c(c1)OCO3)C2 (stereo unspecified)
→ 2	109	.	.	i	1	.
[56] CCOC(=O)C1CCN(c2c(N3CCCCCC3)c(=O)c2=O)CC1
→ -10	105	.	.	i	0.9	-0.5
[57] O=C(O)C1CCCCC1C(=O)NCCCn1ccnc1 (stereo unspecified)
→ -3	98	7	102	i	1	0.1
[58] COc1cc(/C=N/Nc2nc3ccccc3o2)cc(OC)c1O
→ -1	100	-114	100	i	0.79	-1.2
[59] CC(C)NC(=O)Cn1nnc(-c2cccc(NC(=O)c3ccccc3F)c2)n1
→ -6	115	.	.	i	1	-1.4
[60] O=C(CN(c1ccccc1Cl)S(=O)(=O)c1ccccc1)N/N=C/c1ccccc1C(=O)O
→ 2	97	-56	142	i	0.81	.
[61] CCOC(=O)c1sc2ncn(CC(=O)N(CC)CC)c(=O)c2c1C
→ -2	100	.	.	i	0.8	0.8
[62] C/C(CCc1oc2c(Br)cc(Br)cc2c1-c1ccc(C)o1)=N\O
→ 5	106	0	148	i	0.94	-1.8
[63] Cc1cc2nc(-c3ccccn3)c(-c3ccccn3)nc2cc1C
→ .	100	.	.	i	0.9	.
[64] Cc1ccc(S(=O)(=O)NNC(=O)Nc2ccc(Cl)cc2)cc1
→ 2	91	-56	129	i	0.9	-1.0
[65] COc1ccc(C)cc1-n1nnnc1SCC1CCCO1 (stereo unspecified)
→ -3	17*	-61	128	i	0.63	-2.0
[66] Cc1ccc(NC(=O)CSc2n[nH]c(N)n2)cc1S(=O)(=O)N1CCOCC1
→ .	95	.	.	i	0.97	.
[67] CCc1ccccc1N1CCN(S(=O)(=O)c2ccc(F)c(C)c2)CC1
→ -3	104	-49	231	i	0.82	-0.1
